Source: PubChem
Ab BasE inh: BasE siderophore enzyme inhibitors, primary screen, biochemical, Acinetobacter baumannii ATCC 17978, fluorescence polarization | purified BasE, fluorescence polarization binding displacement | inhibition, % (no concentration beside the values) | hit rate 0.1% among 84,000;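 active = both replicates above 25% with normal brightness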;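 note: 0% = negative plate control signal and 100% = positive plate control signal; stock transfer was 100 nL into about 30 µL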
LANA-nucl inh: inhibitors of KSHV LANA-nucleosome binding, primary screen, biochemical, fluorescence polarization, FITC-LANA1-23, chicken nucleosomes | FITC-LANA1-23 / chicken nucleosome fluorescence polarization; hits give low values | z-score (test concentration not listed) | hit rate 0.3% among 51,000 | AID 720717, 2013;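 active = both repeat wells score below -2 in polarization z-score versus plate sample wells, excluding overly bright wells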;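 note: 100 nL library stock added to about 30 µL; numbers are from one replicate; some results filed as inactive read as strong as hits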
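Assay system: FITC-LANA peptide and chicken nucleosomes; input: 240 nM purified chicken nucleosomes (480 nM peptide binding sites), final; also added: 50 nM FITC-LANA1-23 probe; medium: TEN-BT buffer, pH 7.5; doses: pin-transferred compound, 100 nL; times: 10–45 min, room temperature; technique: fluorescence polarization; replication: duplicates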
The depositor's hits bear a star; nt = no result given. Not all compounds are listed (hit frequency here may not be typical).

The first 3 entries (preview)
SMILES | Ab BasE inh | LANA-nucl inh
CCCC(=O)C1=C(O)C(C(=O)OC)C(C)(C)CC1=N (stereo not given) | -0.7 | 1.2
CC1(C)CC(=O)C(=CN2CCOCC2)C(=O)C1 | 1.9 | nt
CC1CN(S(=O)(=O)c2cccc(C(=O)Nc3ccccc3)c2)CC(C)O1 (stereo not given) | 2.7 | -0.88

The whole of this part (from the top)
SMILES | Ab BasE inh | LANA-nucl inh
CCCC(=O)C1=C(O)C(C(=O)OC)C(C)(C)CC1=N (stereo not given) | -0.7 | 1.2
CC1(C)CC(=O)C(=CN2CCOCC2)C(=O)C1 | 1.9 | nt
CC1CN(S(=O)(=O)c2cccc(C(=O)Nc3ccccc3)c2)CC(C)O1 (stereo not given) | 2.7 | -0.88
CC(Sc1nnc(-c2cccs2)n1C1CC1)C(=O)c1ccc(F)c(F)c1 (stereo not given) | 1.1 | nt
COc1cc2c(cc1OC)CN(S(=O)(=O)c1ccc3c(c1)CCC(C)(C)O3)CC2 | 2.8 | nt
OCCSc1nc2ccccc2n1CCOc1ccccc1 | 1.5 | 0.087
O=C(COc1ccc(Cl)cc1)NCCc1ccccc1 | -0.2 | nt
CCN1C(=O)NC(c2cccnc2)C(C(=O)OC)=C1C (stereo not given) | 1.9 | -0.16
O=C(NC1CCCCC1)N1CCN(Cc2ccccc2)CC1 | -1.0 | -1.2
O=C(O)C1C2C=CC(C3CC23)C1C(=O)N1CCc2ccccc21 (stereo not given) | 0.8 | 0.47
CCN(CCC#N)c1ccc(CNCC2CN(Cc3ccccc3)CCO2)c(C)c1 (stereo not given) | -1.2 | nt
CC1=C(CCN2CCN(c3ccccc3)CC2)C(C)(C)CCC1 | -1.9 | 0.9
Cn1c2ccccc2c2cc(C(=O)O)sc21 | 2.5 | nt
CC1CC(=O)C2=C(C1)Nc1ccccc1N(C(=O)COc1ccccc1)C2c1ccco1 (stereo not given) | 0.1 | -0.54
CCN(CC(=O)Nc1ccccc1OC)CC(=O)NC1CCCc2ccccc21 (stereo not given) | 6.0 | nt

Reformatted with each value named: entries from further up.
OCCSc1nc2ccccc2n1CCOc1ccccc1
  Ab BasE inh: 1.5; LANA-nucl inh: 0.087
Cn1c2ccccc2c2cc(C(=O)O)sc21
  Ab BasE inh: 2.5; LANA-nucl inh: nt
CCCC(=O)C1=C(O)C(C(=O)OC)C(C)(C)CC1=N (stereo not given)
  Ab BasE inh: -0.7; LANA-nucl inh: 1.2
CC1CN(S(=O)(=O)c2cccc(C(=O)Nc3ccccc3)c2)CC(C)O1 (stereo not given)
  Ab BasE inh: 2.7; LANA-nucl inh: -0.88

(more compounds)
SMILES | Ab BasE inh | LANA-nucl inh
O=C(Nc1nnc(C(F)(F)F)s1)c1ccccc1 | -0.6 | -0.47
CC1CCN(Cn2cnn(CN3CCC(C)CC3)c2=S)CC1 | -0.1 | 0.26
CCOc1ccccc1NC(=O)Nc1cc(C(=O)O)ccc1C | 2.8 | -1.7
CC(C)(C)c1nc2scc(-c3ccccc3)c2c(=O)o1 | 3.3 | nt
C=CCn1c(=N)c(C(N)=O)cc2c(=O)n3ccccc3nc21 | -0.1 | -0.81
Cn1c(=O)c2cc(C(=O)O)sc2c2ccccc21 | 2.0 | -0.79
CCn1c(C)cs/c1=N\C(=S)Nc1ccccc1C | 2.8 | -0.087
O=C1CCCc2nc(-c3ccc(O)cc3)ncc21 | nt | -0.43
O=C(NCCc1ccccn1)C1CCN(C(=O)c2ccc(F)cc2)CC1 | -5.9 | nt
Clc1ccc(Sc2c(-c3ccccc3)nc3ncccn23)cc1 | -0.8 | nt
FC(F)(F)C1(C(F)(F)F)N=C(c2ccccc2)OC(N2CCCCC2)=N1 | 1.8 | nt
Cc1oc2nc[nH]c(=O)c2c1C(=O)NCc1ccccc1 | -3.9 | nt
NCc1ccc(Cl)cc1 | 1.3 | nt
O=C(CSc1nnc(-c2ccccc2O)o1)Oc1ccc(OCc2ccccc2)cc1 | -0.2 | 0.15
CC1(C)Cc2c(cnn2-c2ccccc2)C(=O)/C1=N\NC(=O)c1ccncc1 | 2.6 | 0.023
CCOC(=O)C1CCN(C(=O)c2ccc(OCC)cc2)CC1 | -0.4 | -1.3
CCOC(=O)/C(N=Nc1c(C)n(C)n(-c2ccccc2)c1=O)=C(/O)c1ccccc1 | 2.0 | nt
COc1cccc(N(CC(=O)Nc2ccc(C)cc2)S(C)(=O)=O)c1 | -0.5 | -0.8
Cc1ccc(-c2cc(-c3ccco3)c(C#N)c(SCC(=O)Nc3ccc(Cl)c(Cl)c3)n2)cc1 | 0.2 | 0.41
Cc1c(C(=O)OCc2nc(-c3cccc(Cl)c3)no2)sc2nc3n(c(=O)c12)CCC3 | -0.1 | nt
O=C(Nc1cccc(C(F)(F)F)c1)C(NCCN1CCOCC1)c1ccccc1 (stereo not given) | 1.2 | nt
COc1cc(OC)cc(C(=O)N(C)Cc2ccccc2C)c1 | 0.6 | nt
COc1ccc2c(c1)CC/C(=C/c1ccc(N3CCOCC3)cc1)C2=O | 0.4 | -0.082
O=C(O)CCC1(CCC(=O)O)CCCCC1=O | 1.0 | -0.6
COc1ccccc1NC(=O)c1ccc(NC(=O)CSc2nnc(C)n2N)cc1 | -0.3 | nt
c1cc2c(cc1C1CCCCC1)c1c3n2CCN=C3CCC1 | -1.4 | nt
CCOC(=O)c1c(C)oc2nc(COC(=O)c3cc(-c4ccc(Cl)cc4)nc4ccccc34)nc(N)c12 | 3.1 | nt
CCN(CC)CCN(C)C1CCC(c2ccccc2)CC1 (stereo not given) | 0.2 | -1.8
CCCC(=O)Nc1cc(C)c(NC(=O)C23CC4CC(CC(C4)C2)C3)cn1 | 0.6 | -0.38
CCC1CCC2(CC1)NC(CO)(CO)CO2 (stereo not given) | 2.1 | -0.26
CC(=O)NC(C)c1nc(-c2ccccc2)no1 (stereo not given) | -2.1 | 0.56
CSc1nc(/N=C/N(C)C)n2nc(-c3ccccc3)cc2n1 | -3.0 | nt
O=C1CC(c2ccccc2)N=C(SCC(=O)NC2CCCCC2)N1 (stereo not given) | 1.4 | -1.5
Cc1cc(C)n(-c2ccc(C(=O)OCCN3C(=O)c4ccccc4C3=O)cc2)n1 | 3.5 | nt
Cc1ccc(C)c(N2CCN(c3cc4c(nn3)Oc3ccccc3N4C)CC2)c1 | 0.6 | -0.26
O=C1/C(=C/c2ccc3c(c2)OCCO3)COc2ccccc21 | -1.1 | nt
NC(=O)C1CCN(c2ccc(S(=O)(=O)N3CCCCC3)cn2)CC1 | -2.1 | nt
CN1CCN(c2cc(C(=O)c3ccccc3O)cn3c(=O)c4ccccc4nc23)CC1 | 4.6 | nt
NC(=O)COC(=O)c1ccccc1Br | 4.8 | nt
COc1ccc(CN2CCSCC2)cc1Br | 1.2 | -0.22
COc1cc(C2C3=C(CCCC3=O)OC3=C2C(=O)CCC3)cc(Br)c1O | 1.6 | 2
CCOc1ccc2nc(SC(C)C(N)=O)[nH]c2c1 (stereo not given) | -1.3 | nt
NC(=S)NC1CC2C=CC1C2 (stereo not given) | 0.5 | nt
Oc1ccc(CNc2ccccc2Cl)c2cccnc12 | -1.1 | 0.43
O=S(=O)(NCCN1CCCC1)c1cc2ccccc2s1 | nt | -0.84
COn1c(=O)c(-c2cccc(C(F)(F)F)c2)[n+]([O-])c2ccccc21 | -1.6 | 0.84
CCNc1ccc2c(Cl)cc(=O)oc2c1 | 2.3 | -1.1
CC(C)CCNC(=O)c1cc2oc3ccccc3c2n1C | -0.3 | 0.77
O=C(NC1CC1)c1sccc1-c1ccccc1 | -0.4 | nt
O=C(COc1ccc(-n2cnnn2)cc1)NCC(F)(F)F | -0.8 | nt
O=C(CCC(=O)c1ccccc1)Nc1ccccc1F | -5.4 | 0.99
COc1ccc(/C=C/C(=O)OC2CCOC2=O)cc1OC (stereo not given) | -0.1 | nt
CCCCN(c1ccccc1)S(=O)(=O)c1ccc2c(c1)oc(=O)n2CC(=O)OCC | 0.5 | -0.49
CCn1cc(C(=O)N(C)CC(OC)OC)c(=O)c2cc(S(=O)(=O)N3CCc4ccccc4C3)ccc21 | 0.2 | -0.12
COc1cc(C(=O)NC2CCCc3ccccc32)ccc1OCc1c(C)noc1C (stereo not given) | -1.9 | nt
CN(C)S(=O)(=O)c1cc(C(=O)O)c(N2CCCCC2)cc1Cl | 2.4 | nt
Cc1cc(=O)[nH]c(Nc2ccccc2)n1 | 0.1 | nt
CC1(C)CC2(CCCN(C(=S)Nc3ccccc3)C2)CCO1 (stereo not given) | 2.3 | nt
O=C(CSC1=NCCS1)Nc1ccccc1Cl | 1.9 | 0.43
N/C(Cc1nc2ccccc2[nH]1)=N\O | 0.5 | nt

Compound profiles, from the list above. Screens in order: Ab BasE inh, LANA-nucl inh
`COc1cc(C(=O)NC2CCCc3ccccc32)ccc1OCc1c(C)noc1C` (stereo not given) is listed as -1.9, nt
`N/C(Cc1nc2ccccc2[nH]1)=N\O` is listed as 0.5, nt
`O=C(CSC1=NCCS1)Nc1ccccc1Cl` is listed as 1.9, 0.43
`CC(C)CCNC(=O)c1cc2oc3ccccc3c2n1C` is listed as -0.3, 0.77

New compounds follow:
SMILES | Ab BasE inh | LANA-nucl inh
CC1CN(CCC(=O)NN)CC(C)O1 (stereo not given) | -0.2 | nt
COc1ccc(CNC(=O)c2cnc3ccccn3c2=O)cc1 | 0.1 | 0.5
C=CCOCC(O)Cn1c(N)nc2c1c(=O)n(C)c(=O)n2C (stereo not given) | 1.3 | 0.12
C=CCSc1n[nH]c(=O)n1C1CCCCC1 | 0.4 | -0.25
Cc1cccc(C)c1OCC(=O)Nc1ccc2c(c1)OCO2 | 0.1 | nt
Cc1ccc(OCc2nc(-c3ccc(C(=O)NCCCN4CCN(Cc5ccccc5)CC4)cc3)oc2C)cc1 | -0.9 | -1
CC(=O)N(C)Cc1nc2ccccc2n1CC(=O)N(C)c1ccccc1 | -0.2 | -0.22
CC(=O)N1CCN(C(=O)CSc2ncnc3ccccc23)CC1 | 1.4 | nt
CCN(C(=O)C1CCC1)c1nc2c(C)cccc2s1 | 0.3 | nt
CCC(=O)c1ccc(OC(=O)C2c3ccccc3Oc3ccccc32)cc1 | 2.9 | nt
COc1cccc(/C=N/N(CCO)C2=NS(=O)(=O)c3ccccc32)c1 | 1.7 | 0.94
CC1(C)C(=O)C2(CCCCC2)C(=O)OC1C(=O)c1ccccc1 (stereo not given) | 1.2 | nt
COCCn1c(SCC(=O)Nc2sc(C)c(C)c2C#N)nnc1C(C)C | -1.1 | 0.7
O=c1c2cccc3c2c(nn1CN1CCOCC1)-c1ccccc1-3 | -2.9 | 1.2
Cc1noc(C)c1CSc1nc(-c2ccccc2)c(-c2ccccc2)n1CC1CCCO1 (stereo not given) | -0.2 | nt
CCC(CO)Nc1ncnc2sc3c(c12)CCCC3 (stereo not given) | -2.5 | nt
Cc1ccc(CN(C)C(=O)c2cccc(S(=O)(=O)N(C)C)c2)o1 | 0.9 | nt
CC(C)n1ncc2c1N=C(c1ccco1)N(C)C2c1ccccc1 (stereo not given) | 3.0 | nt
COc1ccc(C=Nc2nc3ccccc3nc2N2CCCC2)cc1 | 1.1 | nt
COc1ccc(OCc2nc3ccccc3n2C)cc1 | -5.1 | 0.15
Cc1ccc(NC(=O)CS(=O)CC(=O)Nc2ccc3c(c2)CCC3)cc1 (stereo not given) | 0.5 | -0.21
CCN(Cc1ccncc1)Cn1nc(C(=O)O)c2ccccc21 | 0.5 | nt
Cc1cc(NC(=O)CSc2nc3nccnc3c(=O)n2Cc2ccco2)n[nH]1 | 3.2 | 0.25
O=C(CCc1ccccc1)OCc1nnc(-c2ccc(Br)cc2)o1 | -3.0 | nt
CCOc1ccc2c(c1)C(C)=CC(C)(C)N2C(=O)CSc1nnc(C2CC2)n1C | 2.7 | nt
O=C(CSc1ccccc1)N1c2ccccc2Sc2ccccc21 | 3.3 | nt
CNS(=O)(=O)c1ccc(NC(=O)c2ccc(C)o2)cc1 | -0.5 | -0.9
CC(=O)N1CCN(C2CCSC2)CC1 (stereo not given) | 1.7 | -1.2
c1ccc(N=P(c2nc3ccccc3o2)(N2CCOCC2)N2CCOCC2)cc1 | -0.2 | nt
Cc1ccc(C)c(OCc2nnc(SCC(=O)NC(=O)NCc3ccco3)o2)c1 | -0.6 | nt
CC(=O)NS(=O)(=O)c1ccc(NC(=O)c2cn3ccccc3n2)cc1 | 0.8 | nt
CC(OC(=O)c1ccccc1F)C(=O)N1CCc2ccccc21 (stereo not given) | -1.6 | nt
Nc1ccc(S(=O)(=O)NCc2ccco2)cc1 | 1.6 | 0.11
Oc1ccc(-c2cnc3ccccc3n2)cc1 | -2.8 | -0.12
CC(=O)O/N=C(\N)c1ccc(N2CCN(c3ncccc3C(F)(F)F)CC2)nc1 | -1.7 | -1.4
COc1ccc(N(C(=O)Cn2nnc3ccccc32)C(C(=O)NCC2CCCO2)c2sccc2C)cc1 (stereo not given) | 1.4 | 0.27
CC1CCCCC1NC(=O)C1CCCN(c2nnc(-n3cccc3)s2)C1 (stereo not given) | 3.1 | 0.8
CC1CCCCN1S(=O)(=O)c1ccc(C(=O)Nc2nc3ccc4ccccc4c3s2)cc1 (stereo not given) | 1.8 | nt
CC(=O)Nc1ccc(S(=O)(=O)N[C@@H](C)C(=O)N2CCN(C/C=C/c3ccccc3)CC2)cc1 | -6.0 | nt
O=C(Cn1ncn2nc(-c3cccs3)cc2c1=O)NCCCN1CCCCCC1 | -7.6 | 0.21
O=C1N=c2ccccc2=C1c1sc(N2CCOCC2)nc1O | 4.2 | nt
COc1ccc(OCC(=O)Nn2cnnc2)cc1 | 3.0 | -1.1
COc1ccc(N/C=C(/C#N)c2nc(-c3cccs3)cs2)cc1 | 2.0 | -1.1
